# FGF22 binding – binders of human FGF22 protein, primary screen, FGF22 synaptogenesis inhibitor project, biophysical, thermal shift, single point; recombinant FGF22 thermal shift, SYPRO orange fluorescence; percent of sucrose octasulfate shift, DMSO zero; calls only at 9.99 µM; 1.5% of 340,000 active;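 active means melting point raised past a set limit in the mean and every replicate; three in four hits are not shown here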
# Target sequence (Q9HCT0 whole entry, looked up): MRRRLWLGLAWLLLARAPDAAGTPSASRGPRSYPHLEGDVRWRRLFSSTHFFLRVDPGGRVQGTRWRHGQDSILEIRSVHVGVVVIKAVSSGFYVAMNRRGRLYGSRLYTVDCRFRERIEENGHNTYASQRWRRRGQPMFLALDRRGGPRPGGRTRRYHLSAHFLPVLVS
# Ecoli rRNA inh – reduced GFP signal of wild-type E. coli, primary screen, bacterial rRNA inhibitor project, GFP/RFP fluorescence, OD600, single point | E. coli WT GFP vs humanized-ribosome RFP mutants, 24 h; stronger effect = lower value; DMSO median 0, no signal -100 | GFP signal change (wild-type ribosome), % (concentration not given with the values) | AID 720706, 2013 | 1.6% of 350,000 active;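 active means significant combined selectivity score with lowered wild-type GFP, culture density cut under 30%, mutant RFP and density less affected; inactive means any of these conditions unmet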; further: one replicate is shown; some compounds called inactive have numbers as strong as hits
# AF4-AF9 inh – inhibitors of AF4 peptide binding to AF9, primary screen, biochemical, AlphaScreen, biotin-AF4 peptide, FLAG-AF9, single point. Protein AF-9 (Homo sapiens), P42568. AID 651704, 2012. inhibition, % at 10 µM. 0.47% of 350,000 active;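 active means every replicate reaching a set inhibition limit, whatever the replicate mean, cut at about 25% in these data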;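 further: 0% = plate neutral control median and 100% = total signal loss; the record names both 10 and 1 µM as test concentration; the first replicate is given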
# Target sequence (P42568 whole entry, looked up): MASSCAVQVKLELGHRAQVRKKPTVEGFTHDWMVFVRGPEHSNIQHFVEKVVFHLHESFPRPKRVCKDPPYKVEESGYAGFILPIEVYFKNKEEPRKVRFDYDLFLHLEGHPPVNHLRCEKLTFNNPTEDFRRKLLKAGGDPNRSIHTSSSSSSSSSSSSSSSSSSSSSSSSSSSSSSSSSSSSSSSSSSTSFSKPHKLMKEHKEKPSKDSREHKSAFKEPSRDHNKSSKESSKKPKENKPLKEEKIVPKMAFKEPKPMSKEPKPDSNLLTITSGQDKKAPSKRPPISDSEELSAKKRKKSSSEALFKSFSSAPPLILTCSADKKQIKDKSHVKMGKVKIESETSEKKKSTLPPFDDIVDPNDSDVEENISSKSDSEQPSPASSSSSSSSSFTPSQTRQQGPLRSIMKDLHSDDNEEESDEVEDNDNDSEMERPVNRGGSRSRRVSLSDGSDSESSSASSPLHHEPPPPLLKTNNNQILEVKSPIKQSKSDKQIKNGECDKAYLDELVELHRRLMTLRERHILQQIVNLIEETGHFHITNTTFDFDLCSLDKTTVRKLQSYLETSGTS
# Ecoli rRNA inh OD600 – second read-out of Ecoli rRNA inh, no call of its own (marks repeat the call); OD600 change, %; measured here: OD600 growth;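 optical density of the mix in the first replicate; 0 = DMSO median and -100 = no signal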
# Ecoli rRNA inh RFP – further read-out of Ecoli rRNA inh, marked with its call; RFP signal change, %; measured here: RFP humanized mutant strains;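 first replicate; 0 = DMSO median and -100 = no signal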
# * = called active by the depositor; i = inactive; & = joins results of further samples. This is a subset; count on the stated rates, not on these rows.
# The first 6 records, ahead of the listing:
SMILES,FGF22 binding,Ecoli rRNA inh,Ecoli rRNA inh OD600,Ecoli rRNA inh RFP,AF4-AF9 inh
O=C(NCCCN1CCOCC1)[C@H]1[C@H](CO)[C@H]2Cn3c(cccc3=O)[C@@H]1N2C(=O)NC1CCCC1,i,2.7,-0.4,-0.4,0.0
CC(C)NC(=O)N(C)C[C@H]1OCCCC[C@@H](C)Oc2ccc(NC(=O)CCCN(C)C)cc2C(=O)N([C@H](C)CO)C[C@@H]1C,i,0.9,5.8,-0.2,-0.9
C[C@H]1CN([C@@H](C)CO)C(=O)Cc2cc(N(C)C)ccc2O[C@@H]1CN(C)Cc1ccc(Cl)c(Cl)c1,i,-13.1,-36.2,3.8,17.6
COc1cccc(C(=O)Nc2ccc3c(c2)C(=O)N(C)[C@@H]2CC[C@@H](CC(=O)N[C@@H](C)c4ccccc4)O[C@@H]2CO3)c1,i,-4.1,-0.7,0.8,-0.4
O=C(NCCc1ccccc1)C1Cc2c(-c3ccccc3)ccnc2O1 (stereo not given),i,-18.2,-37.9,-4.4,-1.4
O=C(C[C@H]1C[C@@H]2c3cc(NC(=O)C4CCC4)ccc3O[C@@H]2[C@@H](CO)O1)NC1CCCC1,i,-0.8,7.3,0.7,-3.2

# This part in full, previewed entries included:
SMILES,FGF22 binding,Ecoli rRNA inh,Ecoli rRNA inh OD600,Ecoli rRNA inh RFP,AF4-AF9 inh
O=C(NCCCN1CCOCC1)[C@H]1[C@H](CO)[C@H]2Cn3c(cccc3=O)[C@@H]1N2C(=O)NC1CCCC1,i,2.7,-0.4,-0.4,0.0
CC(C)NC(=O)N(C)C[C@H]1OCCCC[C@@H](C)Oc2ccc(NC(=O)CCCN(C)C)cc2C(=O)N([C@H](C)CO)C[C@@H]1C,i,0.9,5.8,-0.2,-0.9
C[C@H]1CN([C@@H](C)CO)C(=O)Cc2cc(N(C)C)ccc2O[C@@H]1CN(C)Cc1ccc(Cl)c(Cl)c1,i,-13.1,-36.2,3.8,17.6
COc1cccc(C(=O)Nc2ccc3c(c2)C(=O)N(C)[C@@H]2CC[C@@H](CC(=O)N[C@@H](C)c4ccccc4)O[C@@H]2CO3)c1,i,-4.1,-0.7,0.8,-0.4
O=C(NCCc1ccccc1)C1Cc2c(-c3ccccc3)ccnc2O1 (stereo not given),i,-18.2,-37.9,-4.4,-1.4
O=C(C[C@H]1C[C@@H]2c3cc(NC(=O)C4CCC4)ccc3O[C@@H]2[C@@H](CO)O1)NC1CCCC1,i,-0.8,7.3,0.7,-3.2
COCCCNc1ccn2nc(-c3ccc(OCCN4CCOCC4)cc3)cc2n1,i,-0.2,1.2,3.1,-5.5
C[C@@H]1CN([C@H](C)CO)S(=O)(=O)c2ccc(C3=CCCC3)cc2O[C@@H]1CN(C)Cc1cccc(C(=O)O)c1,i,2.7,8.4,-2.7,3.3
C[C@@H]1CN([C@H](C)CO)C(=O)c2cc(NC(=O)CCCN(C)C)ccc2O[C@@H](C)CCCCO[C@H]1CN(C)C(=O)Nc1cccc2ccccc12,i,4.5,-2.8,5.2,1.1
O=C(COC(=O)c1ccc(S(=O)(=O)N2CCCC2)cc1)Nc1ccccc1Cl,i,12.3,11.9,0.1,-0.4
O=C(N[C@@H]1CC[C@H](CC(=O)N2CCOCC2)O[C@H]1CO)c1ccc2c(c1)OCO2,i,5.0,5.6,-3.9,-1.1
O=C(C[C@@H]1CC[C@@H](NC(=O)c2ccncc2)[C@@H](CO)O1)NCCc1ccncc1,i,2.6,4.5,-0.9,-1.4
CCS(=O)(=O)N1CCCCN2[C@H](CO)[C@@H](c3ccc(-c4ccccc4C)cc3)[C@H]2C1,i,4.0,5.5,0.7,11.5
CN1CCN(C(=O)CCn2c(=S)[nH]c3ccccc3c2=O)CC1,i,13.3,13.2,0.1,-3.8
C[C@@H]1CN([C@H](C)CO)C(=O)c2cc(C#Cc3ccncc3)cnc2O[C@H]1CN(C)CC1CCOCC1,i,8.4,9.4,1.5,-6.9
CNC[C@H]1Oc2cc(C#CC3(O)CCCC3)ccc2S(=O)(=O)N([C@@H](C)CO)C[C@@H]1C,i,0.3,10.7,1.6,0.0
COc1ccc(NC(=O)Nc2ccc3c(c2)C(=O)N([C@H](C)CO)C[C@@H](C)[C@H](CN(C)CC2CC2)OCCCC[C@@H](C)O3)cc1,i,-0.3,-6.7,-0.9,27.7*
O=C(NCC(=O)N1CCN(Cc2c(F)cccc2Cl)CC1)c1cccc(Cl)c1,i,-7.9,-15.7,-0.5,1.1
CC(=O)N(C)C[C@@H]1Oc2cc(C#Cc3ccccc3F)ccc2S(=O)(=O)N([C@H](C)CO)C[C@@H]1C,i,5.4,-5.1,9.1,-1.0
C[C@H](CO)N1C[C@H](C)[C@H](CN(C)C(=O)C2CC2)Oc2cc(C#Cc3ccccc3)ccc2S1(=O)=O,i,0.9,-15.5,5.6,-1.3
O=C(N[C@H]1CC[C@H](CCn2cc(C3(O)CCCC3)nn2)O[C@@H]1CO)c1ccccc1F,i,-2.5,-0.4,2.6,0.1
COc1c(C)cc(C(O)c2ncc(-c3ccc(C(F)(F)F)cc3)[nH]2)cc1C (stereo not given),i,-21.6,-37.5,-11.0,0.3
O=C(NCC[C@@H]1CC[C@@H](NS(=O)(=O)Cc2ccccc2)[C@H](CO)O1)C1CCCCC1,i,-0.4,8.1,-0.2,-0.5
Cc1noc(C)c1NC(=O)NCC[C@H]1CC[C@H](NC(=O)Nc2cccc(Cl)c2)[C@@H](CO)O1,i,-1.7,1.5,2.8,7.2
CCCC(=O)Nc1ccc2c(c1)C(=O)N(C)C[C@H](OC)[C@H](C)CN(S(=O)(=O)c1cn(C)cn1)[C@@H](C)CO2,i,2.3,3.3,-1.6,0.0
SMILES,FGF22 binding,Ecoli rRNA inh,Ecoli rRNA inh OD600,Ecoli rRNA inh RFP,AF4-AF9 inh
COc1c(C)cc(C(O)c2ncc(-c3ccccc3C)[nH]2)cc1C (stereo not given),i,11.5,2.9,1.4,2.3
O=C(COc1ccc(F)cc1)NCC1(N2CCCCC2)CCCCC1,i,7.4,3.2,0.7,0.0
CC(=O)CC(=O)O[C@@H]1C=C[C@H](NC(=O)OC(C)(C)C)C1,i,3.0,12.4,-2.8,-0.9
C[C@@H]1CN([C@H](C)CO)C(=O)c2cccc(NS(C)(=O)=O)c2O[C@@H]1CN(C)S(=O)(=O)c1cccs1,i,1.1,-6.2,-0.9,-1.6
COc1ccc2c3c([nH]c2c1)[C@H](CO)N(Cc1ccccn1)CC31CCN(C(=O)CC2CC2)CC1,i,-1.0,-2.8,-0.8,-6.5
COc1ccc(-c2ccc3c(c2)O[C@@H](CN(C)CC2CCOCC2)[C@H](C)CN([C@@H](C)CO)S3(=O)=O)cc1,i,-8.8,-7.0,-4.6,2.0
C[C@H](CO)N1C[C@H](C)[C@@H](CN(C)Cc2ccccn2)Oc2ncc(Br)cc2C1=O,i,7.1&2.0,3.5&18.0,-1.0&-2.5,0.1&-2.8&-3.4
CCN(CC)CCNc1ccc(C)c2sc3ccc(O)cc3c(=O)c12,i,-65.6,-79.3,-23.5,50.3*
Cc1ccc(S(=O)(=O)N[C@@H]2CC[C@@H](CCn3cc(C4(O)CCCC4)nn3)O[C@H]2CO)cc1,i,4.2,2.2,-0.4,-0.2
COCC(=O)N1[C@H](C(=O)Nc2ccccc2)[C@@H](CO)[C@@H]2Cn3c(ccc(-c4ccc(F)cc4)c3=O)[C@@H]21,i,-0.8,-4.1,-1.5,0.3
CCC(=O)N1C[C@H](C)[C@@H](OC)CN(C)C(=O)c2cc(NC(=O)NC3CCCC3)ccc2OC[C@@H]1C,i,1.4,1.8,0.0,4.2
Cc1ccc(S(=O)(=O)Nc2ccc3c(c2)C(=O)N([C@@H](C)CO)C[C@H](C)[C@@H](CN(C)S(=O)(=O)c2ccc(F)cc2)OCCCC[C@H](C)O3)cc1,i,-4.2,-0.1,-0.1,-4.8
C[C@H](CO)N1C[C@H](C)[C@@H](CN(C)C(=O)Nc2ccc(C(F)(F)F)cc2)Oc2ccc(NC(=O)c3ccncc3)cc2CC1=O,i,-1.0,0.3,0.3,-0.5
C[C@@H](NC(=O)C[C@@H]1CC[C@@H](NC(=O)C2CCC2)[C@H](CO)O1)c1ccccc1,i,0.5,1.6,-3.2,1.3
C#CCN1[C@@H]2CCN(C2)c2cc(Br)ccc2S1(=O)=O,i,-11.7,-33.2,-7.4,-0.2
C[C@@H]1CCCCO[C@@H](CN(C)Cc2ccncc2)[C@H](C)CN([C@H](C)CO)C(=O)c2cc(NC(=O)NC3CCCCC3)ccc2O1,i,-3.4,-7.2,-1.1,-1.9
O=C(Nc1ccccc1)N[C@@H]1CC[C@H](CCn2cc(C3(O)CCCC3)nn2)O[C@@H]1CO,i,-0.1,5.1,-4.6,-3.5
CCc1nc2c(OCC(=O)C(C)(C)C)cccn2c1N(C)C(=O)c1cccs1,i,4.9,-4.7,-0.3,-2.4
C[C@@H]1CN([C@@H](C)CO)C(=O)c2cc(C#Cc3ccccc3F)cnc2O[C@H]1CN(C)C(=O)Cc1ccncc1,i,2.2,5.7,-1.8,-2.7
COc1ccc2c3c(n(C)c2c1)[C@H](CO)NCC31CCN(S(=O)(=O)c2cccc(C)c2)CC1,i,-30.5,-45.5,-4.7,19.3
CO[C@@H]1CN(C)C(=O)c2cc(NS(=O)(=O)c3ccccc3)ccc2OC[C@@H](C)N(Cc2ccccn2)C[C@@H]1C,i,-2.0,-1.1,3.7,-0.3
CCOc1cc(N2CCOCC2)c(OCC)cc1NC(=O)COC(=O)c1c(C)noc1C,i,3.9,3.5,1.3,-1.0
COC(=O)C[C@H]1C[C@@H]2c3cc(NC(=O)C4CCC4)ccc3O[C@@H]2[C@@H](CO)O1,i,-1.0,11.2,-1.9,-2.1
C/C=C/c1cnc2c(c1)C(=O)N([C@@H](C)CO)C[C@H](C)[C@@H](CN(C)Cc1ccncc1)O2,i,9.2,13.2,-2.3,-3.9
COc1cccc(CN2[C@H](CO)[C@H]3c4ccccc4N(C(=O)c4cccnc4)C[C@H]32)c1,i,0.6,6.4,-1.0,-0.9
SMILES,FGF22 binding,Ecoli rRNA inh,Ecoli rRNA inh OD600,Ecoli rRNA inh RFP,AF4-AF9 inh
CCOC(=O)CC1(C)NC(C(=O)O)C(C)(C)S1 (stereo not given),i,3.6,11.1,-1.8,-2.1
COCCNC[C@H]1[C@@H](c2ccccc2)[C@@H](CO)N1c1nc(C)c(C)s1,i,-2.2,-3.4,-0.6,0.8
COc1ccc(NC(=O)Nc2cccc3c2O[C@@H](CN(C)CC2CCCCC2)[C@H](C)CN([C@@H](C)CO)C3=O)cc1,i,-2.7,6.3,0.7,4.5
O=C(NN=Cc1c(O)ccc2ccccc12)c1ccncc1,i,-47.9,-65.6,-12.9,5.9
CN1CCN(C(=O)C[C@H]2C[C@@H]3c4cc(NC(=O)Cc5ccncc5)ccc4O[C@@H]3[C@H](CO)O2)CC1,i,0.1,2.7,-2.6,-0.6
COc1cccc(S(=O)(=O)N(C)C[C@H]2OCc3ccccc3-c3c(n(C)c4ccccc34)C(=O)N([C@@H](C)CO)C[C@H]2C)c1,i,-0.3,-0.6,-0.7,6.6
CC(C)NC(=O)Nc1ccc2c(c1)C(=O)N([C@H](C)CO)C[C@H](C)[C@H](CN(C)C(=O)c1ccccc1)OCCCC[C@@H](C)O2,i,0.5,8.7,-3.2,-4.8
C[C@H](CO)N1C[C@H](C)[C@H](CN(C)S(C)(=O)=O)Oc2ncc(C#Cc3cccnc3)cc2C1=O,i,0.6,14.9,-6.2,-3.3
C[C@@H]1CCCCO[C@H](CN(C)S(=O)(=O)c2cn(C)cn2)[C@@H](C)CN([C@H](C)CO)C(=O)c2cc(NS(=O)(=O)c3ccccc3)ccc2O1,i,3.8,11.2,-2.0,0.1
O=C(COc1cccc(C(F)(F)F)c1)Nc1cccc(S(=O)(=O)NC2=NCCCCC2)c1,i,0.6,-2.4,0.2,-0.6
CC1(C(=O)Nc2ccc3c(c2)OCO3)CCN1C(=O)CCc1ccc(Cl)cc1Cl (stereo not given),i,-21.2,-55.5,-4.2,0.5
C[C@H]1CN(S(=O)(=O)C(C)(C)C)[C@@H](CCO)/C1=C\CCO,i,-1.2,14.9,3.1,-5.5
COc1ccc(NC(=O)Nc2ccc3c(c2)C(=O)N([C@H](C)CO)C[C@H](C)[C@@H](CN(C)C(=O)Cc2ccccc2)OCCCC[C@@H](C)O3)cc1,i,1.1,-0.3,-1.4,0.0
COC(=O)[C@]12CCCCC=C1N(Cc1ccccc1)C(=O)[C@H](CC(=O)N1CCCCC1)C2,i,-25.9*,-18.1*,0.9*,7.4
C[C@@H]1CN([C@H](C)CO)C(=O)c2cc(NC(=O)CCCN(C)C)ccc2O[C@H]1CN(C)CC1CCCCC1,i,5.0,4.7,-0.2,-1.0
C[C@@H]1CCCCO[C@@H](CN(C)C(=O)Cc2ccccc2)[C@@H](C)CN([C@H](C)CO)C(=O)c2cc(NS(=O)(=O)c3cccs3)ccc2O1,i,1.7,-7.8,0.5,-1.4
C[C@@H]1CN([C@H](C)CO)S(=O)(=O)c2ccc(C#Cc3ccncc3)cc2O[C@@H]1CN(C)C(=O)Nc1ccc2c(c1)OCO2,i,-9.6,-14.8,0.3,7.3
O=C(C[C@@H]1C=C[C@H](NC(=O)Nc2ccccc2)[C@H](CO)O1)NCc1cccc(F)c1,i,0.3,5.6,-1.1,-12.0
